ALR H2O2 inh – human ALR oxidase inhibition via reduced H2O2. AID 485317. purified ALR, DTT oxidation, H2O2 HRP-luminol luminescence. actives 3.8% (n = 290,000). P55789. inhibition, % (test concentration not listed);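 active = mean and each replicate at 75% or more; inconclusive = only one of the two met; inactive = neither met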;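 also: stock transfer was 7.5 nL into about 7.5 µL; 0% = neutral wells and 100% = wells with inactivated enzyme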
Target sequence (P55789 whole entry, looked up): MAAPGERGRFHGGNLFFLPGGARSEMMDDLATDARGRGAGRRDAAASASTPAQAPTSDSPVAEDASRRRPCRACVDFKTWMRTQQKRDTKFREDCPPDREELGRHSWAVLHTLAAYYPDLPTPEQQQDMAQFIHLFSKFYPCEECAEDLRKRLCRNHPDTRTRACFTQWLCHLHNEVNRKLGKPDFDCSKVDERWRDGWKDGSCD
Ecoli rRNA inh – selective bacterial rRNA inhibition in E. coli; E. coli WT GFP vs humanized-ribosome RFP mutants, fluorescence, 24 h; active compounds read low; DMSO median 0, no signal -100; GFP signal change (wild-type ribosome), % (no concentration beside the values); actives 1.6% (n = 350,000); AID 720706;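 active = significant combined selectivity score with lowered wild-type GFP, culture density cut under 30%, mutant RFP and density less affected; inactive = any of these conditions unmet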; also: one replicate is shown; some compounds called inactive have numbers as strong as hits
T cruzi repl – T. cruzi replication inhibition | inhibition, % (test concentration not listed) | actives 1.4% (n = 300,000) | T. cruzi beta-gal in NIH3T3, luminescence, 90 h | AID 1885;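 active = mean inhibition across valid replicates above about 55%, limit read from the data; inconclusive = mean below that limit but half or more replicates reach it; inactive = mean below it, under half of replicates reach it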;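 also: signal also drops with host cell toxicity which is not excluded here; 0% = plate median of DMSO wells and 100% = zero luminescence signal; higher percent means less beta-gal luminescence so fewer parasites; stock transfer was 50 nL into about 50 µL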
Beta apoptosis – beta cell apoptosis inhibition; INS-1E cytokine-induced death, ATP luminescence, 48 h; percent of positive-control rescue, neutral wells zero; protection from apoptosis, % (no concentration beside the values); actives 0.8% (n = 300,000); AID 435005;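 active = all replicates at 75% or more, or half of them and the mean; inconclusive = half reach 75% but not the mean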;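 also: 0% = cytokine-treated negative control wells and 100% = positive control rescue; higher means more ATP so stronger rescue from cytokine killing; wells of about 40 µL received 100 nL stock; the first replicate is given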
A1 inh – inhibitors of the anti-apoptotic protein A1, read as caspase activation; MEF A1-2A-BIM cells, Caspase-Glo 3/7 luminescence, 3 h; percent of clofoctol response, vehicle zero; actives 0.066% (n = 330,000); caspase activation, % (test concentration not listed);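 active = over half of replicate activation scores above 10%, or exactly half above 10 with the replicate mean above 10; inconclusive = replicate mean below 10 yet half the replicates above 10; inactive = over half of replicates below 10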;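 also: wells of about 30 µL received 50 nL stock; many hits fall short of the cut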
LANA-H2A inh – blocks KSHV LANA binding to histone H2A/H2B; cell-free LANA-H2A/H2B peptide, fluorescence polarization; inhibition, % (test concentration not listed); actives 0.6% (n = 320,000); in the data active = inhibition mostly above about 10%, no sharp cut-off; inactive = mostly below about 6.7%;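 also: stock transfer was 7.5 nL into about 10 µL; 0% = median of vehicle wells and 100% = median of positive control wells; one replicate is shown; the record names a cut of 25% in any replicate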
B2AR ag – activates human beta-2 adrenergic receptor causing internalization; P07550; Am2.2-beta2AR cells, FAP receptor internalization, flow cytometry; reference of the scale not given here; response, % (concentration not given with the values); actives 0.43% (n = 340,000); AID 504454;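 active = response above a set limit, near 3 SD of response in nonfluorescent compounds, cut at about 42% in these data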;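 also: stock transfer was 100 nL into about 11 µL; a reference agonist was the positive control; negative values mostly stem from fluorescent compounds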
Target sequence (P07550 whole entry, looked up): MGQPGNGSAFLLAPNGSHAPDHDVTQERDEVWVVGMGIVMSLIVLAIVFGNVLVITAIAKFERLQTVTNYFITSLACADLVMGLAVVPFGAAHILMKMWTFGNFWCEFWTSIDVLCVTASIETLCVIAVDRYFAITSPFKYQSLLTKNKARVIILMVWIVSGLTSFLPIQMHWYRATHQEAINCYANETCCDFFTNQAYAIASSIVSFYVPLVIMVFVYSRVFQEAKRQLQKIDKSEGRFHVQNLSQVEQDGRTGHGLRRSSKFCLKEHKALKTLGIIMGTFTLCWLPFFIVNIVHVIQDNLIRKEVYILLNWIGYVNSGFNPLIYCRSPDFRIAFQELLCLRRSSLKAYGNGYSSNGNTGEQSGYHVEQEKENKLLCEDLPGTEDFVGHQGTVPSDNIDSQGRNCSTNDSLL
Calb FLC – affects C. albicans growth with fluconazole | AID 1979 | C. albicans CaCi-2 (fluconazole-resistant clinical isolate) + fluconazole, Alamar Blue growth, 48 h | growth inhibition, % (test concentration not listed) | actives 0.57% (n = 300,000);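 active = most replicates above 75%; inconclusive = exactly half above 75%; inactive = most below 75%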;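 also: all wells also contain fluconazole at 8 µg/ml as a sub-toxic cotreatment; 0% = median of DMSO wells and 100% = median of geldanamycin control wells; wells of about 8 µL received 7.5 nL stock; the first replicate is given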
Ecoli rRNA inh OD600 – recorded beside Ecoli rRNA inh, whose call it bears; OD600 change, %; measured here: OD600 growth;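 optical density of the mix in the first replicate; 0 = DMSO median and -100 = no signal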
Ecoli rRNA inh RFP – further read-out of Ecoli rRNA inh, marked with its call; RFP signal change, %; measured here: RFP humanized mutant strains;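 first replicate; 0 = DMSO median and -100 = no signal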
Numbers without * were called inactive. This is a subset; the hit share may differ from the screen's.

`CN1C(=O)C(=Cc2cn(CC#N)c3ccccc23)C(=O)N(C)C1=O` gave ALR H2O2 inh -5, Ecoli rRNA inh 17, T cruzi repl -12, Beta apoptosis -8, A1 inh 0.7, LANA-H2A inh 0.7, B2AR ag -1, Calb FLC -1, Ecoli rRNA inh OD600 13 and Ecoli rRNA inh RFP 2.2.
For COC(=O)C1=C(c2ccc3ccccc3c2)C[C@@H]2CC[C@H]1N2C(=O)NCC1CC1 the results were ALR H2O2 inh -3, Ecoli rRNA inh -10, Beta apoptosis 12, A1 inh -0.7, LANA-H2A inh 0.5, B2AR ag 19, Ecoli rRNA inh OD600 -14 and Ecoli rRNA inh RFP -1.4.
For CC(C)Oc1cc(-n2c(=S)[nH]c3ccccc3c2=O)c(Cl)cc1Cl the results were T cruzi repl 7, A1 inh 0.6, LANA-H2A inh -2.0, B2AR ag 9 and Calb FLC 12.
For COc1cc(OC)cc(C(=O)Nc2ccc(Br)cc2C(=O)c2ccccc2)c1 the results were ALR H2O2 inh -1, T cruzi repl 29, Beta apoptosis -4, A1 inh 0.8, LANA-H2A inh 0.9, B2AR ag 2 and Calb FLC -4.
O=[N+]([O-])c1ccc(N2CCNCC2)cc1NC1CC1 was read as ALR H2O2 inh -5, T cruzi repl -5, Beta apoptosis 3, A1 inh -0.3, LANA-H2A inh -4.5 and Calb FLC -17.
Screening N#CC(C#N)=NNc1ccc(-n2ccc(C(F)(F)F)n2)cc1 returned ALR H2O2 inh 33, Ecoli rRNA inh -51, T cruzi repl 42, Beta apoptosis 102*, A1 inh 0.5, LANA-H2A inh 1.8, B2AR ag 27, Calb FLC -7, Ecoli rRNA inh OD600 -74 and Ecoli rRNA inh RFP -15.
`COC(=O)C1=C(c2ccc3ccccc3c2)C[C@@H]2CC[C@H]1N2C(=O)NCCNC(C)=O` gave ALR H2O2 inh -25, Beta apoptosis -1, A1 inh 0.1, LANA-H2A inh -1.4 and B2AR ag -2.
`CCCC(C)(COC(N)=O)COC(=O)NC(C)C` (configuration not stated) gave Ecoli rRNA inh 3, T cruzi repl -6, LANA-H2A inh -8.0, B2AR ag 2, Ecoli rRNA inh OD600 2 and Ecoli rRNA inh RFP 4.2.
Screening N#CC(C#N)=Cc1ccc(-c2ccccc2F)o1 returned Beta apoptosis -4, A1 inh 1.4, LANA-H2A inh -2.7 and B2AR ag 5.
For O=c1c2ccccc2nc(CNCc2ccco2)n1-c1ccc(F)cc1 the results were T cruzi repl -2, Beta apoptosis 4, A1 inh -0.2, B2AR ag -10 and Calb FLC 7.
For O=[N+]([O-])c1ccc(NCCO)c2ncccc12 the results were ALR H2O2 inh -15, T cruzi repl 11, Beta apoptosis 2, A1 inh 0.3, LANA-H2A inh 0.5, B2AR ag 0 and Calb FLC -1.
`c1ccc(-c2cc(-c3ccccc3)[n+](-c3ccccc3)c(-c3ccccc3)c2)cc1` gave ALR H2O2 inh 13, Ecoli rRNA inh -54, T cruzi repl 42, Beta apoptosis 113*, A1 inh 2.5, LANA-H2A inh 0.6, B2AR ag 29, Calb FLC inconclusive, Ecoli rRNA inh OD600 -74 and Ecoli rRNA inh RFP -31.
Screening CC(N)Cc1cn(Cc2ccccc2)c2ccccc12 (configuration not stated) returned ALR H2O2 inh -41, Ecoli rRNA inh -7, T cruzi repl 16, Beta apoptosis 19, A1 inh 1.1, LANA-H2A inh -3.8, B2AR ag 16, Calb FLC 2, Ecoli rRNA inh OD600 -19 and Ecoli rRNA inh RFP -2.4.
COCCCNC(=O)Cn1cc(/C=C2\C(=O)NC(=O)N(c3ccccc3F)C2=O)c2ccccc21 was read as ALR H2O2 inh 2, T cruzi repl -4, Beta apoptosis -2, A1 inh 1.2, LANA-H2A inh 0.8, B2AR ag 33 and Calb FLC -1.
`CN(C)C(=O)Oc1ccc(OCc2n(C)c3ccccc3[n+]2C)cc1` gave ALR H2O2 inh 0, T cruzi repl -5, Beta apoptosis -7, A1 inh 0.7, LANA-H2A inh -3.1, B2AR ag -6 and Calb FLC 9.
O=c1cccc2n1CC1CC2CN(c2ncnc3c2cnn3-c2ccccc2)C1 (configuration not stated) was read as ALR H2O2 inh -6, T cruzi repl 0, Beta apoptosis -1, A1 inh -0.3, LANA-H2A inh 1.5, B2AR ag 1 and Calb FLC -2.
`CCOC(=O)c1c(C)n(Cc2ccccc2)c2ccc(OCC(O)Cn3nc(C)nc3C)cc12` (configuration not stated) gave ALR H2O2 inh -17, Ecoli rRNA inh -2, T cruzi repl 0, A1 inh -0.7, LANA-H2A inh 0.1, B2AR ag 13, Calb FLC 8, Ecoli rRNA inh OD600 -14 and Ecoli rRNA inh RFP 3.6.
For Cc1cc(C(=O)Nc2ccccc2)nn1C(C)(C)C the results were ALR H2O2 inh 3, Ecoli rRNA inh 2, T cruzi repl 6, A1 inh -5.0, LANA-H2A inh -8.5, B2AR ag -4, Calb FLC 0, Ecoli rRNA inh OD600 4 and Ecoli rRNA inh RFP -2.4.
`CCCOC(=O)C1C2c3ccccc3C(c3ccccc32)C1C(=O)O` (configuration not stated) gave ALR H2O2 inh -4, Ecoli rRNA inh 2, T cruzi repl -25, Beta apoptosis 6, A1 inh 0.0, LANA-H2A inh -2.1, B2AR ag 3, Calb FLC 1, Ecoli rRNA inh OD600 -2 and Ecoli rRNA inh RFP -1.8.
For CC1(C)C2CC=C(CN3CCOCC3)C1C2 (configuration not stated) the results were ALR H2O2 inh -4, Ecoli rRNA inh 16, T cruzi repl 5, Beta apoptosis 0, A1 inh 0.4, LANA-H2A inh 0.3, B2AR ag -4, Calb FLC 0, Ecoli rRNA inh OD600 8 and Ecoli rRNA inh RFP -6.0.
`CCOC(=O)c1c(N)n(Cc2ccco2)c2nc3ccccc3nc12` gave ALR H2O2 inh 8, Beta apoptosis -5, A1 inh -0.3, LANA-H2A inh -6.3 and B2AR ag 11.
Screening COc1cc(C(=O)N/N=C/C23CC[C@@H](O)CC2(O)CC[C@@H]2[C@@H]3CCC3(C)C(C4=CC(=O)OC4)CCC23O)ccc1O (some centres not stated) returned ALR H2O2 inh 95*, Ecoli rRNA inh 14, T cruzi repl -4, Beta apoptosis 1, A1 inh 0.3, LANA-H2A inh 3.3, B2AR ag 2, Calb FLC -3, Ecoli rRNA inh OD600 9 and Ecoli rRNA inh RFP 0.1.
Screening Cn1c(O)c(/C=C/C=Nc2ccccc2)c(=O)n(C)c1=S returned ALR H2O2 inh -1, T cruzi repl -2, Beta apoptosis 4, A1 inh 1.7, LANA-H2A inh -5.0, B2AR ag 2 and Calb FLC -5.
CC(=O)Nc1ccc(OCCF)cc1 was read as ALR H2O2 inh 2, Ecoli rRNA inh 11, T cruzi repl -15, Beta apoptosis -3, A1 inh 0.3, LANA-H2A inh 3.8, B2AR ag 13, Calb FLC 13, Ecoli rRNA inh OD600 6 and Ecoli rRNA inh RFP -3.9.
Screening C=C[C@H]1CN2CC[C@H]1C[C@@H]2[C@@H](O)c1ccnc2ccccc12 returned ALR H2O2 inh 2, Ecoli rRNA inh 14, Beta apoptosis -3, A1 inh 0.0, LANA-H2A inh -5.2, B2AR ag 7, Ecoli rRNA inh OD600 20 and Ecoli rRNA inh RFP 1.4.
Screening Brc1ccccc1CNCCc1ccc2c(c1)OCO2 returned ALR H2O2 inh -7, Ecoli rRNA inh 3, T cruzi repl 33, Beta apoptosis -10, A1 inh -0.2, LANA-H2A inh 7.1, B2AR ag 3, Calb FLC -15, Ecoli rRNA inh OD600 -12 and Ecoli rRNA inh RFP -4.9.
Screening CCC(=NCC1CCCO1)c1c(O)n(-c2ccccc2C)c(=O)[nH]c1=O (configuration not stated) returned ALR H2O2 inh -8, Ecoli rRNA inh 16, T cruzi repl 0, Beta apoptosis 0, A1 inh -0.1, LANA-H2A inh 4.3, B2AR ag -3, Calb FLC 2, Ecoli rRNA inh OD600 7 and Ecoli rRNA inh RFP 1.5.
Screening COc1ccc(Br)cc1CNCCc1ccc2c(c1)OCO2 returned ALR H2O2 inh -6, Ecoli rRNA inh -20, T cruzi repl 51, Beta apoptosis 4, A1 inh 0.6, LANA-H2A inh 3.1, B2AR ag -5, Calb FLC -2, Ecoli rRNA inh OD600 -11 and Ecoli rRNA inh RFP -2.8.
Screening C=C[C@@]12CN(C)[C@H]3[C@H]1[C@@]1(C(=O)Nc4ccccc41)C1CC2[C@@H]3CO1 returned ALR H2O2 inh 12, Ecoli rRNA inh 2, Beta apoptosis -4, A1 inh 0.1, LANA-H2A inh -3.0, B2AR ag 0, Ecoli rRNA inh OD600 1 and Ecoli rRNA inh RFP -0.5.
For CC(=NCc1cccnc1)c1c(O)n(-c2ccc(C)cc2)c(=O)[nH]c1=O the results were ALR H2O2 inh -18, T cruzi repl -4, Beta apoptosis -4, A1 inh 0.6, LANA-H2A inh -5.2, B2AR ag -9 and Calb FLC 1.
Cc1ccc(N2C(=O)NC(=O)/C(=C\c3cnc(-c4ccccc4)nc3)C2=O)cc1 was read as Ecoli rRNA inh 16, T cruzi repl -8, Beta apoptosis -5, A1 inh -0.5, LANA-H2A inh 7.2, B2AR ag 3, Calb FLC -2, Ecoli rRNA inh OD600 -2 and Ecoli rRNA inh RFP -2.7.
For Cn1cccc1C1CCCN1CC(=O)Nc1ccc(C#N)c(Cl)c1 (configuration not stated) the results were ALR H2O2 inh 2, Ecoli rRNA inh 1, Beta apoptosis 0, A1 inh 0.5, LANA-H2A inh -1.9, B2AR ag 2, Ecoli rRNA inh OD600 11 and Ecoli rRNA inh RFP 19.
Screening Cn1cc(C(=O)N2CCCCC2)c2ccccc21 returned ALR H2O2 inh 4, Ecoli rRNA inh 4, T cruzi repl 8, Beta apoptosis -8, A1 inh -0.1, LANA-H2A inh 3.1, B2AR ag 5, Calb FLC 0, Ecoli rRNA inh OD600 9 and Ecoli rRNA inh RFP 0.5.
Screening O=C(Nc1ccc(C(F)(F)F)cc1)OC1CN2CCC1CC2 (configuration not stated) returned ALR H2O2 inh -5, Ecoli rRNA inh -18, T cruzi repl 11, A1 inh -0.6, LANA-H2A inh 2.1, B2AR ag 0, Calb FLC 4, Ecoli rRNA inh OD600 -8 and Ecoli rRNA inh RFP 1.4.
`O=S(=O)(c1ccc(Cl)cc1Cl)N1CCCC1c1cccnc1` (configuration not stated) gave ALR H2O2 inh -6, Ecoli rRNA inh -12, T cruzi repl 45, Beta apoptosis 1, A1 inh -0.2, LANA-H2A inh -0.4, B2AR ag 0, Calb FLC -5, Ecoli rRNA inh OD600 1 and Ecoli rRNA inh RFP -1.6.
`Cc1nnc(SCc2nc3ccccc3c(=O)n2-c2ccccc2Cl)n1N` gave ALR H2O2 inh -5, T cruzi repl 7, Beta apoptosis 3, A1 inh -0.1, LANA-H2A inh -0.8, B2AR ag -14 and Calb FLC 27.
CCOC(=O)Cn1cc(C(=O)c2ccccc2)c2ccccc21 was read as ALR H2O2 inh -3, Ecoli rRNA inh -19, T cruzi repl -14, A1 inh 0.2, LANA-H2A inh 0.9, B2AR ag 10, Calb FLC 2, Ecoli rRNA inh OD600 -16 and Ecoli rRNA inh RFP 1.1.
N=C1c2ccccc2CN1c1ccc(F)c([N+](=O)[O-])c1 was read as ALR H2O2 inh 17, Ecoli rRNA inh -5, T cruzi repl -6, Beta apoptosis 3, A1 inh -0.3, LANA-H2A inh 3.9, B2AR ag -12, Calb FLC 0, Ecoli rRNA inh OD600 3 and Ecoli rRNA inh RFP -6.3.
